Screening results deposited in PubChem by several laboratories.
HSV augment: increases HSV replication in cells | maximum fold increase | HSV replication augmentation in cells, fold increase | 220,000 tested, 0.005% active;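 active = peak rise of 1.5-fold or more in the series; inconclusive = self-fluorescent or not available for retest; tested in PC3 cells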;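 note: first round at 10 µM; read as green reporter fluorescence; hits show the peak of a series up to 25 µM; 1 = signal of infected wells without compound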
PKD1 inh: PKD1 (human) kinase inhibition; inhibition, %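 (about 10 µM by stock and volumes)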; PKD1 kinase fluorescence polarization assay; 200,000 tested, 0.056% active; AID 797; Q15139;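 active = inhibition of 50% or more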;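 note: controls were vehicle for no effect and a reference inhibitor for full effect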
Target sequence (Q15139 whole entry, looked up): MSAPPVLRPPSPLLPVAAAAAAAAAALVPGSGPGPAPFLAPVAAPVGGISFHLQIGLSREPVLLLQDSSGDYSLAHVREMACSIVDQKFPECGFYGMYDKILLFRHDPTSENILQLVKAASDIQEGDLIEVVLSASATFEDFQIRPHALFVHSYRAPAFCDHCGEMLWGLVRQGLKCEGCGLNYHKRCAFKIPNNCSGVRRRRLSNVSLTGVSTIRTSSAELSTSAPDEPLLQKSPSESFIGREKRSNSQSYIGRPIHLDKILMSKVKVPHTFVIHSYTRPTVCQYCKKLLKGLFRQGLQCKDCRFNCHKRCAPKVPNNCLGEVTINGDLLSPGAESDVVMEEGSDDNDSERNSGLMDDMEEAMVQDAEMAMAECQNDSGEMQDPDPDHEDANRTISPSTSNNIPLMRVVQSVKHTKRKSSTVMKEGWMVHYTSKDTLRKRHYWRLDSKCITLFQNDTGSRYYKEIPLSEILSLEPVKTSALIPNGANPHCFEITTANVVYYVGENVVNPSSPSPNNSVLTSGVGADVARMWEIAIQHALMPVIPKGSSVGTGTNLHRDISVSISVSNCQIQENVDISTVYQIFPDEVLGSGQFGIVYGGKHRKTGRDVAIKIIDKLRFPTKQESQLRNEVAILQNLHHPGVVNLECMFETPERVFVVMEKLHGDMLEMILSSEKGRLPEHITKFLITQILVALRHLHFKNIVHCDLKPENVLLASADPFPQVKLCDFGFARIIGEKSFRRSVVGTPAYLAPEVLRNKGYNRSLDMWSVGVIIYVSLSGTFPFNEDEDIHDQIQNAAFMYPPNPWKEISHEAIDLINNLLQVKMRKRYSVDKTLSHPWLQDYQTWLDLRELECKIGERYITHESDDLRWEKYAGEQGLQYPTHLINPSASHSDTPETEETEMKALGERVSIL
GALR2 agonist: GALR2 (human) receptor agonism | 140,000 tested, 0.48% active | GALR2-expressing cells, agonist activation read-out | activation, %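 (tested at 5 µM)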;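 active = above mean plus 3 SD of all compounds, about 5% in these data, not always enough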;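 note: 0% = vehicle buffer wells and 100% = reference agonist at full effect; tested in CHO reporter cells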
RGS16-Gao HTS: RGS16-Galphao interaction regulator (human) | bead-based flow cytometry RGS16-Galphao binding, fluorescence; actives lie on both sides | 220,000 tested, 0.38% active | AID 1441 | binding response (% of control), % at 10 µM | O15492+P09471;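 active = below 25% or above 175%, edge rows of some plates excepted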;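 note: Galphao activated by GDP with aluminum fluoride before binding; 100% = wells without compound and 0% = beads without RGS; some results beyond the cut were filed as inactive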
INS promoter inh: TRM-6 insulin promoter activity inhibition; TRM-6 cells (human fetal islet line), insulin promoter-eGFP reporter, imaging; reporter expression induced with tamoxifen; inhibition, % at 2 µM; 130,000 tested, 0.9% active; AID 1273;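 active = inhibition above the mean plus 3 SD, with well images judged a real hit on visual review, cut at about 60% in these data, passing the limit was not always enough; inconclusive = inhibition over the cutoff but images rejected on review; inactive = inhibition not above the cutoff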
INS promoter inh cell count: recorded beside INS promoter inh, whose call it bears; normalized cell count, %; measured here: cell count, toxicity; reference of the scale not given here;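 cells exposed to compound for 48 h; stained nuclei by imaging scaled within each plate; lower means fewer cells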
HSV augment primary fold: second read-out of HSV augment, no call of its own (marks repeat the call); fold increase; compound at 10 µM; measured here: primary screen fold increase 10 uM; tested in PC3 cells;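 GFP signal in the first replicate; 1 = infected wells without compound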
* = called active by the depositor; i = inactive; ? = inconclusive; / = no result given.

Below each compound – HSV augment | HSV augment primary fold | PKD1 inh | GALR2 agonist | RGS16-Gao HTS | INS promoter inh | INS promoter inh cell count
1) CCn1cc(CN2CCCC(C(=O)c3sccc3C)C2)cn1 (stereo not given)
→ i | 0.95 | 2 | / | 98 | / | /
2) CC(=NCCN1CCOCC1)c1c(O)n(Cc2ccccc2)c(=O)[nH]c1=O
→ i | 1.3 | -7 | -1.3 | 97 | -51 | 66
3) Cc1cc(C=C2C(=O)NC(=O)NC2=O)c(C)n1-c1ccc2c(c1)OCO2
→ i | 1.1 | -6 | -1.0 | 98 | / | /
4) Nc1c(C(=O)NCc2ccco2)c2nc3ccccc3nc2n1CCN1CCOCC1
→ i | 0.82 | 3 | 3.4 | 104 | 19 | 144
5) CSC(=Nc1ccccc1)c1c(O)n(C)c(=O)n(C)c1=O
→ i | 0.7 | -3 | -1.7 | 102 | / | /
6) CCOP(=O)(OCC)C(NC(=O)CC(C)C)C(Cl)(Cl)Cl (stereo not given)
→ i | 0.92 | 13 | / | 108 | -57 | 76
7) O=C(NCc1ccc(C(=O)N2CCC3(CC2)OCCO3)cc1)c1cccc(Br)c1
→ i | 0.97 | -3 | -1.5 | 103 | -227 | 141
8) CC(=NCCCn1ccnc1)c1c(O)n(-c2ccccc2)c(=O)[nH]c1=O
→ i | 0.96 | / | / | 101 | / | /
9) CCC(C)N1Cc2ccccc2C1=N (stereo not given)
→ i | 1.1 | 11 | -2.0 | 101 | / | /
10) CN1CCN(c2c(N)c(=O)oc3ccccc23)CC1
→ i | 0.7 | 4 | 0.0 | 106 | 6 | 59
11) N#Cc1cc2c(nc1SCC(=O)Nc1cc(Cl)cc(Cl)c1)C1CCN2CC1
→ i | 0.79 | 10 | -1.9 | 104 | 42 | 52
12) O=C1NC(=O)N(c2cccc(Br)c2)C(=O)/C1=C/c1ccsc1
→ i | 1.2 | 3 | / | 92 | 33 | 126
13) C=Cc1ccc(Cn2c(C(=O)O)c(C=O)c3ccccc32)cc1
→ i | 0.9 | -9 | / | 99 | 6 | 129
14) CCN(CC)CCN1Cc2ccccc2C1=N
→ i | 1.1 | -4 | -0.9 | 103 | 0 | 86
15) NS(=O)(=O)c1ccc(N=Nc2c(O)[nH]c(=S)[nH]c2=O)cc1
→ i | 1 | / | / | 97 | / | /
16) O=C(COC(=O)Cc1ccccc1)Nc1ccc(F)cc1
→ i | 0.95 | 5 | / | 96 | / | /
17) COc1ccc(N2C(=O)NC(=O)/C(=C/c3ccc([N+](=O)[O-])s3)C2=O)cc1
→ i | 1.3 | / | / | 83 | / | /
18) C=CCN(CC=C)C(=O)Nc1ccc(OCC)cc1
→ i | 1 | -12 | / | 103 | / | /
19) COc1ccc2c(c1)CC1(CN2C)C(=O)NC(=O)N(CCc2ccccc2)C1=O (stereo not given)
→ i | 0.95 | -2 | -0.7 | 110 | / | /
20) Cc1oc(-c2ccccc2F)nc1CS(=O)CC(=O)N1CCC2(CC1)OCCO2 (stereo not given)
→ i | 0.86 | -1 | -0.5 | 52 | -23 | 189
21) O=C(c1cc(S(=O)(=O)N2CCOCC2)ccc1F)N1CCC2(CC1)OCCO2
→ i | 0.94 | 0 | -1.6 | 97 | -12 | 69
22) O=C(Nc1nc(-c2ccccc2)c(-c2ccccc2)s1)c1ccc(S(=O)(=O)N(CCCl)CCCl)cc1
→ i | 0.96 | -7 | -1.5 | 105 | -31 | 188
23) CCOc1ccc(Cl)cc1CNCCc1ccccc1F
→ i | 0.84 | / | / | 104 | / | /
24) CCC(=O)c1cn(Cc2ccccc2C#N)c2ccccc12
→ i | 0.75 | 2 | -1.4 | 100 | / | /
25) O=S(=O)(c1ccc(Cl)cc1)N1CC1c1ccccc1 (stereo not given)
→ i | 1 | -1 | -0.4 | 100 | -13 | 136
26) CC(/C=C(\C)Nc1ccccc1)=Nc1ccccc1
→ i | 0.93 | -3 | / | 101 | / | /
27) CC(C)(C)NC(=S)N1CCn2cccc2C1c1cccnc1 (stereo not given)
→ i | 0.83 | -2 | / | 105 | 0 | 185
28) Cc1ccc2c(c1)N(CCC(=O)N1CCC3(CC1)OCCO3)C(=O)CO2
→ i | 0.84 | -1 | -1.1 | 102 | -8 | 160
29) Cc1cc(NC(=O)COC(=O)c2c(C)nn(Cc3ccccc3)c2C)no1
→ i | 0.86 | 3 | -3.6 | 106 | -25 | 121
30) O=C(COc1ccccc1F)N1CCN(CCN2C(=O)c3cccc4cccc(c34)C2=O)CC1
→ i | 0.95 | 1 | / | 97 | -7 | 87
31) C#CCOc1ccc2c(c1)c(C(C)=O)c(C)n2Cc1ccccc1
→ i | 1 | / | / | 99 | / | /
32) CN(Cc1c[nH]c2ccccc12)C1CCCCC1
→ i | 0.93 | -12 | -2.5 | 110 | -56 | 32
33) COc1ccc(C2NCCc3[nH]cnc32)cc1 (stereo not given)
→ i | 1 | -4 | / | 107 | / | /
34) CC12CCC3C(CCC4C/C(=N/O)CCC43C)C1CCC2O (stereo not given)
→ i | 0.94 | 0 | 1.5 | 104 | / | /
35) CCC(=NCCCn1ccnc1)c1c(O)n(Cc2ccccc2)c(=O)[nH]c1=O
→ i | 0.88 | -3 | -0.2 | 98 | 6 | 128
36) Cn1c(O)c(/C=N/NC(=O)c2ccncc2)c(=O)[nH]c1=S
→ i | 1.2 | / | / | 109 | / | /
37) CCOc1ccccc1C1SCC(=O)Nc2c1c(=O)[nH]n2C(CC)CC (stereo not given)
→ i | 0.84 | -5 | -1.0 | 104 | / | /
38) CC12CC[C@H]3[C@@H](CCC4(O)C[C@H](O)CCC34/C=N/NC(=O)c3ccccc3O)C1(O)CCC2C1=CC(=O)OC1 (stereo not given in full)
→ i | 0.66 | / | / | 99 | / | /
39) COc1ccc(C(=O)N2CCCC2=O)cc1
→ i | 0.94 | 0 | -1.3 | 110 | -5 | 83
40) Cc1cc(C=C2C(=O)N(C)C(=S)N(C)C2=O)c(C)n1-c1cccnc1
→ ? | / | -3 | -0.5 | 105 | 53 | 131
41) COc1cc(N2CCOCC2)ccc1/C=C1\C(=O)NC(=O)N(C2CCCCC2)C1=O
→ i | 1 | -2 | -0.7 | 79 | -3 | 109
42) CCC(=Nc1ccc2c(c1)CCC2)c1c(O)n(C2CCCCC2)c(=O)[nH]c1=O
→ i | 1.1 | 6 | -0.8 | 104 | / | /
43) CCCCCn1c(=O)c(C(=O)NCc2ccccn2)c(O)c2ccccc21
→ i | 1 | 2 | -0.8 | 102 | / | /
44) CCOc1ccc(N=Cc2c(O)n(-c3ccc(C)c(C)c3)c(=O)[nH]c2=O)cc1
→ i | 0.95 | / | / | 91 | / | /
45) O=c1[nH]c(=O)n(Cc2ccc(F)cc2)c(O)c1C=NCC1CCCO1 (stereo not given)
→ i | 1.1 | -2 | -1.4 | 100 | -92 | 109
46) Nc1ccc2c(c1)Cc1ccccc1-2
→ i | 0.91 | 2 | -1.9 | 100 | -11 | 114
47) Cc1c(CCN)ccc2c1[nH]c1ccccc12
→ i | 0.77 | / | / | 94 | / | /
48) O=c1[nH]c2ccccc2c(=O)n1-c1cccc(Cl)c1
→ i | 1 | -10 | 1.4 | 105 | 82* | 75*
49) Cc1ccccc1-n1c(O)c(/C=N/N2CCOCC2)c(=O)[nH]c1=S
→ i | 1.1 | -6 | -1.1 | 46 | -94 | 69
50) Cc1ccc(N2C(=O)NC(=O)/C(=C\c3ccsc3)C2=O)cc1C
→ i | 0.98 | -7 | 0.1 | 74 | / | /
51) Cc1nn(Cc2ccccc2)c(C)c1C=C1C(=O)NC(=O)NC1=O
→ i | 0.99 | -10 | -1.0 | 101 | -30 | 88
52) Cc1ccc(-c2nc(CS(=O)CC(=O)N3CCC4(CC3)OCCO4)c(C)o2)cc1 (stereo not given)
→ i | 0.83 | -13 | -2.1 | 99 | 25 | 135
53) CSc1ccc(C(=O)C2CCCN(C)C2)cc1 (stereo not given)
→ i | 1.1 | -5 | / | 102 | / | /
54) c1ccc(C2OCCN3CCCCC23)cc1 (stereo not given)
→ i | 1 | -8 | -1.4 | 92 | -214 | 42
55) Nc1ccc(S(=O)(=O)N2CC3CC(C2)c2cccc(=O)n2C3)cc1 (stereo not given)
→ i | 1 | -5 | -1.2 | 101 | / | /
56) CNC(=O)Oc1ccc(-c2cn3cc(Cl)ccc3n2)cc1
→ i | 0.91 | -1 | 0.0 | 119 | 6 | 59
57) Cc1ccc(Cl)cc1-n1c(O)c(C=NCCCN2CCOCC2)c(=O)[nH]c1=O
→ i | 0.95 | -9 | -1.4 | 192 | 8 | 51
58) C=CCN=C(SCC(=O)c1ccc(Cl)cc1)c1c(O)n(C)c(=O)n(C)c1=O
→ i | 1.1 | / | / | 93 | / | /
59) O=C(CCN1CCOCC1)NCC(=O)Nc1ccc(Br)cc1C(=O)c1ccccc1
→ i | 1 | -7 | -0.6 | 201 | -3 | 116
60) COc1cc(/C=N/n2cnnc2)ccc1OC(=O)N(C)C
→ i | 0.99 | -4 | -2.5 | 98 | 31 | 131

New compounds follow
Below each compound – HSV augment | HSV augment primary fold | PKD1 inh | GALR2 agonist | RGS16-Gao HTS | INS promoter inh | INS promoter inh cell count
61) CCOP(=O)(OCC)/C(C#N)=C/c1ccoc1
→ i | 1.1 | / | / | 99 | / | /
62) CSc1ncc(Cl)c(C(=O)O)n1
→ i | 1 | 4 | -1.4 | 104 | -10 | 151
63) Cc1nn(Cc2ccccc2)c(C)c1C(=O)NCc1ccccc1F
→ i | 0.92 | -6 | / | 100 | -20 | 132
64) C#CCN1CCN(c2ccc(F)cc2)CC1
→ i | 1 | 0 | / | 102 | 20 | 107
65) CN(C)P(=O)(C(Cl)=C(N1CCCCC1)N1CCCCC1)N(C)C
→ i | 0.74 | 1 | -0.7 | 97 | / | /
66) CNCCc1ccccc1
→ i | 0.92 | / | / | 103 | / | /
67) CCOC(=O)c1ccc(N2C(=O)CC(N3CCC(C#N)(c4ccccc4)CC3)C2=O)cc1 (stereo not given)
→ i | 0.99 | -8 | -2.7 | 102 | -190 | 28
68) COc1ccc(NC(=O)N2CCC3(CC2)OCCO3)c(OC)c1
→ i | 0.92 | -5 | / | 103 | / | /
69) CCCCNC(=O)c1c(N)n(CCCOC)c2nc3ccccc3nc12
→ i | 0.82 | -4 | 9.4* | 99 | -34 | 75
70) CCN(CC)CCOC(=O)c1cc2cc(COC)ccc2o1
→ i | 0.93 | -2 | -2.6 | 104 | 13 | 108
71) Nc1ccccc1-[n+]1c(-c2ccccc2)cc(-c2ccccc2)cc1-c1ccccc1
→ i | 0.89 | / | / | 99 | / | /
72) C=C(C)CSc1nnc([C@@H](N)Cc2c[nH]c3ccccc23)o1
→ i | 0.83 | 0 | 1.3 | 107 | -3 | 78
73) CCC12CN3CC(CC)(CN(C1)C3c1cccnc1)C2=O (stereo not given)
→ i | 0.93 | -2 | -0.7 | 101 | -26 | 104
74) O=C(N/N=C/c1c(O)n(C2CC2)c(=S)[nH]c1=O)c1ccccc1O
→ i | 1 | -9 | -0.8 | 104 | / | /
75) Cc1cc(/C=C2/C(=O)NC(=O)N(C)C2=O)c(C)n1-c1ccccc1
→ i | 0.99 | -3 | / | 101 | / | /

Some of these compounds in order of formula weight, descending.
Below each compound – HSV augment | HSV augment primary fold | PKD1 inh | GALR2 agonist | RGS16-Gao HTS | INS promoter inh | INS promoter inh cell count
7) O=C(NCc1ccc(C(=O)N2CCC3(CC2)OCCO3)cc1)c1cccc(Br)c1
→ i | 0.97 | -3 | -1.5 | 103 | -227 | 141
11) N#Cc1cc2c(nc1SCC(=O)Nc1cc(Cl)cc(Cl)c1)C1CCN2CC1
→ i | 0.79 | 10 | -1.9 | 104 | 42 | 52
71) Nc1ccccc1-[n+]1c(-c2ccccc2)cc(-c2ccccc2)cc1-c1ccccc1
→ i | 0.89 | / | / | 99 | / | /
74) O=C(N/N=C/c1c(O)n(C2CC2)c(=S)[nH]c1=O)c1ccccc1O
→ i | 1 | -9 | -0.8 | 104 | / | /
55) Nc1ccc(S(=O)(=O)N2CC3CC(C2)c2cccc(=O)n2C3)cc1 (stereo not given)
→ i | 1 | -5 | -1.2 | 101 | / | /
51) Cc1nn(Cc2ccccc2)c(C)c1C=C1C(=O)NC(=O)NC1=O
→ i | 0.99 | -10 | -1.0 | 101 | -30 | 88
75) Cc1cc(/C=C2/C(=O)NC(=O)N(C)C2=O)c(C)n1-c1ccccc1
→ i | 0.99 | -3 | / | 101 | / | /
72) C=C(C)CSc1nnc([C@@H](N)Cc2c[nH]c3ccccc23)o1
→ i | 0.83 | 0 | 1.3 | 107 | -3 | 78
13) C=Cc1ccc(Cn2c(C(=O)O)c(C=O)c3ccccc32)cc1
→ i | 0.9 | -9 | / | 99 | 6 | 129
33) COc1ccc(C2NCCc3[nH]cnc32)cc1 (stereo not given)
→ i | 1 | -4 | / | 107 | / | /

Some of the compounds tested (hit frequency here may not be typical).
